MITF inh – inhibitors of MITF. TRPM1 promoter luciferase, luminescence, 24 h. inhibition, % (no concentration beside the values). 37,000 compounds, 0.28% hits. AID 2240;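 active means most replicates at 85% or more, or half of them and the mean; inconclusive means half reach 85% but not the mean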;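 further: human melanocyte line stably carrying TRPM1 promoter luciferase reporter; 0% = vehicle wells and 100% = a positive control; the first replicate is given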
* hit, by the source's call; ? = inconclusive. An excerpt; the hit share may differ from the screen's.

SMILES	MITF inh
Cn1c(NCc2c(O)ccc3ccccc23)nc2ccccc21	16
COC(=O)c1ccccc1NC(=O)c1cccc(NC(=O)CSc2ccccc2)c1C	5
CN(CC(=O)Nc1ccncc1)S(=O)(=O)c1ccccc1	-1
CN(CC(=O)Nc1cc(Cl)ccc1O)S(=O)(=O)c1ccc(Cl)cc1	41
Cc1ccnc(NS(=O)(=O)c2cc([N+](=O)[O-])ccc2C)c1	-10
CC1(C)Cc2ccccc2-c2nc(NCCCO)n(-c3ccccc3)c(=O)c21	6
COc1ccc(C(=O)CSc2nc(C)cc(=O)[nH]2)cc1C	-21
Cc1ccc(NC(=O)COc2ccc(C(=O)Nc3ccc(Cl)cc3)cc2)cc1	-6
O=C(c1ccco1)n1nc(-c2ccccc2)nc1NCc1ccco1	-54
COc1ccc(S(=O)(=O)N(C)CC(=O)Nc2ccc3c(c2)OCCO3)cc1C	-6
COc1ccc(C2NC(=S)NC(C)=C2C(=O)Nc2cc(OC)c(Cl)cc2OC)c(OC)c1 (stereo not given)	20
O=C(OCc1ccccc1[N+](=O)[O-])c1cccc(-c2nnc(-c3ccccc3)o2)c1	13
CCCN1C(=O)C(NS(=O)(=O)c2ccc(N)cc2)(C(F)(F)F)C(C(=O)OC)=C1C (stereo not given)	5
COc1cccc(NC(=O)CNS(=O)(=O)c2cc(Cl)ccc2Cl)c1	-22
CCCC1=C(C(=O)OCC)C(c2ccco2)n2ncnc2N1 (stereo not given)	-16
CSc1nnc(-c2cc(Cl)ccc2NC(C)=O)c(=O)[nH]1	15
COC(=O)c1cc(OC)c(OC)cc1NC(=O)c1cc(-c2ccc(C)o2)nc2ccccc12	-7
COC(=O)c1ccc(C(=O)OC)c(NC(=O)CSc2ccccn2)c1	-18
NC(=O)CN1C(=O)C(O)(CC(=O)c2ccc(Cl)cc2Cl)c2ccccc21 (stereo not given)	-1
COC(=O)c1ccc(Cl)c(NC(=O)CSc2nc(C)cc(C(F)(F)F)n2)c1	3
CC(C)(C)c1cc(C(=O)Cn2c(NCCO)nc3ccccc32)cc(C(C)(C)C)c1O	-1
COc1ccc(C(=O)CSc2nnc(-c3ccc(C)cc3)n2-c2ccc(C)cc2)cc1	4
O=C(NCc1ccco1)c1cc(-c2cccnc2)nc2ccc(Cl)cc12	-15
Cc1ccc(C(C)C)c(OCC(=O)Nc2sc3c(c2C(N)=O)CCC(C)C3)c1 (stereo not given)	-11
Cc1ccc2nc(-c3ccc(NC(=O)C(C)Oc4ccc5c(C)cc(=O)oc5c4)cc3)sc2c1 (stereo not given)	-29
CCOC(=O)c1c(NC(=O)CN2C(=O)c3ccccc3C2=O)sc(C)c1-c1ccccc1	1
CC(C)(C)C(=O)COc1cccc(NC(=O)c2ccc([N+](=O)[O-])cc2)c1	35
COCc1ccccc1Cn1cnc2ccccc21	53
COc1cccc(NC(=O)COc2ccccc2C(=O)O)c1	-64
COc1ccc(C)cc1NC(=O)CSc1nnnn1-c1ccccc1	7
CCCc1cc(=O)[nH]c(SCC(=O)Nc2ccccc2C)n1	-12
COc1cc(C(=O)Nc2ccc(OCC(=O)O)cc2)cc(OC)c1OC	-3
NS(=O)(=O)c1ccc(CNC(=O)c2cc(-c3ccccn3)nc3ccc(Cl)cc23)cc1	43
NS(=O)(=O)c1ccc(NC(=O)CSc2nnc(-c3ccccc3F)n2-c2ccccc2)cc1	8
O=[N+]([O-])c1ccccc1S(=O)(=O)Nc1cccnc1	19
Cc1c(NC(=S)NC(=O)COc2ccccc2)cccc1-c1nc2ccccc2s1	19
N#Cc1ccc(NC(=O)Cn2ccc([N+](=O)[O-])n2)cc1	-12
COc1ccccc1C1C(C(=O)Nc2ccc(C)cc2C)=C(C)Nc2nnnn21 (stereo not given)	-11
COc1ccc(Cl)cc1N(CC(=O)Nc1ccccc1C(F)(F)F)S(C)(=O)=O	-13
COC(=O)c1cc(Cc2ccccc2)sc1NC(=O)c1cc(-c2cccnc2)nc2ccccc12	-5

Another view of 7 compounds above:
Compound | MITF inh
COCc1ccccc1Cn1cnc2ccccc21 | 53
COc1cccc(NC(=O)COc2ccccc2C(=O)O)c1 | -64
COc1ccc(C)cc1NC(=O)CSc1nnnn1-c1ccccc1 | 7
CCCc1cc(=O)[nH]c(SCC(=O)Nc2ccccc2C)n1 | -12
COc1cc(C(=O)Nc2ccc(OCC(=O)O)cc2)cc(OC)c1OC | -3
NS(=O)(=O)c1ccc(CNC(=O)c2cc(-c3ccccn3)nc3ccc(Cl)cc23)cc1 | 43
NS(=O)(=O)c1ccc(NC(=O)CSc2nnc(-c3ccccc3F)n2-c2ccccc2)cc1 | 8

(next part)
SMILES	MITF inh
COC(=O)c1ccc(C)c(NC(=O)CN(c2cc(Cl)c(Cl)cc2Cl)S(C)(=O)=O)c1	0
COc1ccc(Oc2ccc(NC(=O)C(C)N3C(=O)C4C5C=CC(C6CC56)C4C3=O)cc2)cc1 (stereo not given)	26
CC1CCc2c(sc(NC(=O)c3ccccc3[N+](=O)[O-])c2C(N)=O)C1 (stereo not given)	1
O=C(CSc1nc2ccccc2[nH]1)N1c2ccccc2Sc2ccccc21	-2
O=[N+]([O-])c1cccc(S(=O)(=O)NCCCn2ccnc2)c1	-15
COC(=O)Cc1c(C)c2c(OCC(N)=O)cc(C)cc2oc1=O	-7
CCOC(=O)c1c(NC(=O)c2cc(-c3cccnc3)nc3c(C)cc(C)cc23)sc(C(C)=O)c1C	-10
COc1cc(NC(=O)C(C)N2C(=O)C3CC=C(Cl)CC3C2=O)ccc1[N+](=O)[O-] (stereo not given)	-7
N#Cc1c(NC(=O)CSc2nnc(-c3ccccc3O)n2-c2ccccc2)sc2c1CCCC2	-1
COc1ccc(NC(=O)COc2ccc(Cl)c(C)c2)c([N+](=O)[O-])c1	-89
CC1=C(C(=O)Nc2ccccc2C)C(c2cccc(F)c2)n2nc(CCCO)nc2N1 (stereo not given)	-9
CC(C)N(Cc1nc(-c2ccccc2)no1)S(=O)(=O)c1ccc(Br)cc1	21
Cc1nnc(SCc2nc(N)nc(Nc3ccccc3)n2)s1	-42
O=C(CSc1nc2[nH]ncc2c(=O)n1-c1ccccc1)Nc1nsc(-c2ccccc2)n1	-6
COC(=O)c1ccc(C(=O)OC)c(NC(=O)CN2C(=O)c3cccc4cccc2c34)c1	11
N#Cc1ccc(-c2cccs2)nc1SCC(=O)Nc1sc2c(c1C#N)CCCC2	17
COc1ccc2cc(C(=O)NCc3ccco3)c(=O)oc2c1	-13
COc1ccc(OC)c(NC(=O)COc2ccc3c(=O)c(-c4ccc(OC)c(OC)c4)c(C(F)(F)F)oc3c2)c1	19
CCc1c(O)nc(SCC(=O)Nc2ccc(OC)cc2)n(-c2ccccc2)c1=O	-4
COC(=O)c1ccccc1NC(=O)Cn1cnc([N+](=O)[O-])c1	-10
Cc1ccc(-c2cc(C(=O)NCCN3CCOCC3)c3cccc(C)c3n2)c(C)c1	8
O=C(NCCN1CCOCC1)c1cccc(S(=O)(=O)N2CCCCC2)c1	-7
CCOC(=O)c1cnc(SC2CC(=O)N(c3cccc(F)c3)C2=O)nc1N (stereo not given)	-6
COc1cccc(C(=O)Nc2cccc(OCC(=O)c3ccccc3)c2)c1	-28
O=C(NCCNc1ccc([N+](=O)[O-])cc1)c1ccco1	1
COC(=O)c1ccccc1NC(=O)Cn1nnc(-c2ccc(SC)cc2)n1	-4
Cc1noc(C)c1CSc1nc2ccccc2[nH]1	0
Cc1cccc2c(C(=O)NCCN3CCOCC3)cc(-c3ccccc3Cl)nc12	2
CC(=O)c1cn(CC(=O)NCc2cccnc2)c2ccccc12	-2
COc1ccc(NC(=O)CSc2nc(-c3cccs3)cc(C(F)(F)F)c2C#N)cc1	10
CCOc1ccccc1Nc1nc(Nc2ccccc2OCC)nc(Sc2nnc(C)s2)n1	-12
COc1ccc(-c2c(C#N)c(SCC(N)=O)nc(C)c2C(=O)Nc2ccccc2)cc1	8
Cc1ccc(-c2nc3ccccc3o2)cc1NC(=O)C(C)(C)Oc1ccc(Cl)cc1	15
O=C(NCc1ccccn1)C(=O)Nc1ccc(Cl)c(Cl)c1	-49
CCOC(=O)Cc1csc(NC(=O)c2sc3cccc(F)c3c2Cl)n1	58
CC(=O)Nc1ccc(C(=O)CSc2nnc(-c3ccncc3)o2)cc1	-12
Cc1sc2nc(SCC(=O)N3CCC(c4noc5ccc(F)cc45)CC3)n(-c3ccccc3)c(=O)c2c1C	-1
COC(=O)c1ccccc1NC(=O)CSc1nc2cc3ccccc3cc2[nH]1	29
c1ccc2[nH]c(CCn3c4c(c5ccccc53)CCCC4)nc2c1	?
COc1cc(NC(=S)NCCCO)c(OC)cc1Cl	-13
CCn1ncc(CN(C)C(=O)c2cc(-c3cccnc3)nc3ccc(Cl)cc23)c1C	65
Cc1ccc(-n2c(SCC(=O)Nc3c(Cl)cccc3Cl)nnc2-c2ccncc2)cc1	-9
O=c1[nH]nc(-c2ccc(NCCN3CCOCC3)c([N+](=O)[O-])c2)c2ccccc12	-18
CCOc1ccc(-n2cnnn2)cc1S(=O)(=O)Nc1c(C)cccc1C	2
Cc1cc(C)c(C#N)c(SCC(O)CS(=O)c2ccc(C(C)(C)C)cc2)n1 (stereo not given)	-3
O=C(CCC(=O)c1ccc(Oc2ccccc2)cc1)Nc1ccc(C(=O)O)cc1	5
CN(CCCc1nc2ccccc2[nH]1)S(=O)(=O)c1ccc(Cl)cc1	15
O=C(CSc1nc2ccccc2c(=O)[nH]1)Nc1ccc(F)cc1F	-2
O=C(NC1CCCCC1)c1c(NC(=O)c2cc(-c3cccnc3)nc3ccccc23)sc2c1CCC2	4
CCN(CC(=O)Nc1ccccc1F)S(=O)(=O)c1ccc2ccccc2c1	9
Cc1ccnc(NC(c2cccc(Cl)c2)c2ccc3ccc(C)nc3c2O)c1 (stereo not given)	56
O=C(CCC1COc2ccccc2O1)NCc1ccco1 (stereo not given)	-35
CCOC(=O)CSc1n[nH]c(CC)n1	-1
Cc1ccc(Cl)cc1NC(=O)C(C)n1cc([N+](=O)[O-])cn1 (stereo not given)	2
O=C(NCCCN1CCCC1=O)c1cc(-c2ccccc2)nc2ccccc12	-24
O=C(CCC1COc2ccccc2O1)Nc1ccc(NC(=O)c2ccccc2F)cc1 (stereo not given)	-19
CCC(=O)Nc1cccc(NC(=O)COc2ccc3ccccc3c2)c1	2
c1ccc(Cn2c(SCc3nc4ccccc4[nH]3)nc3ccccc32)cc1	17
Cc1ccc(NC(=O)COc2ccc3cc(-c4ccc(F)cc4)c(=O)oc3c2)cc1	5
COc1ccccc1NC(=O)COc1ccc2c(-c3ccccc3)cc(=O)oc2c1C	-9
(next part)
SMILES	MITF inh
CCOC(=O)c1ccc(COC(=O)c2cc3ccccc3cc2O)o1	6
COc1cc2c(cc1NC(=O)CCCOc1ccccc1)oc1ccccc12	-3
O=C(Cn1cnc([N+](=O)[O-])n1)Nc1cccc2ccccc12	8
OCCNc1nc(Nc2ccc(Cl)cc2)nc(N2CCCCC2)n1	-2
Cc1ccc2nc(-c3ccccn3)cc(C(=O)NCc3ccccn3)c2c1	-7
COc1ccc(C(=O)CSc2nc(SC)ns2)cc1OC	35
COC(=O)c1ccc(C(=O)OC)c(NC(=O)CCC(=O)O)c1	-5
Cc1ccc(NC(=O)CSc2nnc(-c3ccncc3)n2-c2ccccc2)cc1	4
Cc1cccc(NC(=O)CCS(=O)(=O)c2ccccc2)c1	-79
Cc1ccc(S(=O)(=O)N(C)Cc2nc(-c3ccc([N+](=O)[O-])cc3)no2)cc1	45
CC(=O)Nc1cccc(NC(=O)c2cc(-c3cccnc3)nc3ccc(Cl)cc23)c1	-9
COc1cc(Cl)c(C(Nc2ccccn2)c2cc(Cl)c3cccnc3c2O)cc1OC (stereo not given)	63
Cc1ccccc1-c1nc2cc(NC(=O)COc3ccc(Cl)cc3)ccc2o1	-45
O=C(Cn1cnc2ccccc2c1=O)Nc1ccc(Oc2ccccc2)cc1	30
Cn1c(SCC(=O)Nc2c(F)cc(F)cc2Br)nnc1-c1ccco1	6
Cc1cc(=O)oc2cc(OC(C)C(=O)Nc3sc4c(c3C(N)=O)CCCC4)ccc12 (stereo not given)	21
COC(=O)c1c(NC(=S)Nc2ccc(OC)cc2[N+](=O)[O-])sc2c1CCC(C)C2 (stereo not given)	-17
Cc1cc(N(CC(=O)Nc2cccc(C)c2C)S(C)(=O)=O)ccc1Br	-8
O=C(NCCCn1ccnc1)c1cnn2c1NC(c1ccccc1)CC2C(F)(F)F (stereo not given)	-13
Cc1cccc(OCC(=O)Nc2cccc(C(=O)O)c2C)c1	-46

Ordered by molecular weight (rising): some entries from above.
SMILES	MITF inh
O=C(Cn1cnc2ccccc2c1=O)Nc1ccc(Oc2ccccc2)cc1	30
COc1cc2c(cc1NC(=O)CCCOc1ccccc1)oc1ccccc12	-3
Cc1ccc(S(=O)(=O)N(C)Cc2nc(-c3ccc([N+](=O)[O-])cc3)no2)cc1	45
O=C(NCCCn1ccnc1)c1cnn2c1NC(c1ccccc1)CC2C(F)(F)F (stereo not given)	-13
Cc1cc(=O)oc2cc(OC(C)C(=O)Nc3sc4c(c3C(N)=O)CCCC4)ccc12 (stereo not given)	21
COC(=O)c1c(NC(=S)Nc2ccc(OC)cc2[N+](=O)[O-])sc2c1CCC(C)C2 (stereo not given)	-17

New compounds follow:
SMILES	MITF inh
CCOc1ccc(NC(=O)CSc2nc(N)c3c4c(sc3n2)COC(C)(C)C4)cc1	-17
CCc1ccccc1NC(=O)CSc1c(C)n[nH]c1C	11
CCn1c(SCC(=O)Nc2cc3oc4ccccc4c3cc2OC)nnc1-c1cccnc1	24
COc1c(Cl)cc(C(=O)Nc2sc3c(c2C(=O)NCc2ccco2)CCCC3)cc1Cl	-8
COc1ccc([N+](=O)[O-])cc1NC(=O)CS(=O)(=O)c1ccc(C)cc1	-3
COc1cc(C(c2ccc(C)o2)c2ccc(C)o2)c(O)c([N+](=O)[O-])c1	11
Cc1c(Cl)cccc1NC(=O)CCN1C(=O)c2ccccc2S1(=O)=O	-14
Cc1ccc(S(=O)(=O)NC(C)C(=O)O)cc1C (stereo not given)	8
CC(O)c1nc2ccccc2n1CCOc1ccc(Br)cc1 (stereo not given)	20
COc1cccc(-c2ccc(C#N)c(SCC(=O)Nc3ccccc3Br)n2)c1	-24

A second format for some results above:
smiles,MITF inh
CCn1c(SCC(=O)Nc2cc3oc4ccccc4c3cc2OC)nnc1-c1cccnc1,24
Cc1ccc(S(=O)(=O)NC(C)C(=O)O)cc1C (stereo not given),8

Looked up above:
For MITF inh, `CCOc1ccc(NC(=O)CSc2nc(N)c3c4c(sc3n2)COC(C)(C)C4)cc1` is entered as -17
For MITF inh, `CCc1ccccc1NC(=O)CSc1c(C)n[nH]c1C` is entered as 11
